# Assay outcomes (PubChem)
# Biofilm kill mix = mixtures killing C. albicans biofilm. C. albicans biofilm persisters + clotrimazole, fluorescence viability; primary screen in compound mixtures of four per well. inhibition, % at 7.6 µM. 120,000 compounds, 0.02% hits. AID 1242;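 active = inhibition above 30.3% in the primary screen of four-compound pools, then above 30% when the compound was retested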;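 note: compounds exposed to preformed 24 h biofilms for 48 h; the number belongs to the whole pool; some results filed as inactive read as strong as hits; inactives centre near 12; 0% = biofilm with clotrimazole alone and 100% = kill control; retested singly at about 60 µM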
#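 Test system: C. albicans biofilms. Buffer or medium: RPMI/MOPS medium, pH 7.0. Timing: 48 h compound exposure at 37 °C. Technique: Alamar Blue fluorescence. Evaluation: percent inhibition of biofilm viability.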
# Numbers without * were called inactive.
SMILES,Biofilm kill mix
CCOc1ccc(N(CC(=O)NCC2CCCO2)C(=O)CCC(=O)Nc2ccccn2)cc1 (configuration not stated),14
CC(=O)Nc1ccc(C(=O)Nc2cc(C(F)(F)F)ccc2-n2cnc3ccccc32)cc1,5
CC1=C(C)CC(C(=O)Nc2ccc3c(c2)OCO3)C(C(=O)O)C1 (configuration not stated),8
COc1ccc(/C=N/NC(=O)c2ccccc2O)cc1CN1CCOCC1,14
CC1(C)CC2(CCCN(C(=S)Nc3ccccc3)C2)CCO1 (configuration not stated),19
COc1ccc(CC(=O)Nc2cc(S(=O)(=O)N3CCOCC3)ccc2N2CCOCC2)cc1,8
C/C(=N\NC(=O)COc1ccc(C(C)(C)C)cc1)c1ccc(-n2ccnc2)cc1,2
Nc1nc(-c2ccco2)nn1C(=O)c1ccccc1Cl,19
COc1ccccc1N/C(N)=N/c1nc(CSc2nc3ccccc3s2)cc(=O)[nH]1,12
COc1ccc(CN(N=O)C2CC(=O)N(c3ccc(OC)cc3)C2=O)cc1 (configuration not stated),8
Cc1ccc(OCc2csc(N)n2)cc1,15
CC1(C)SC(=S)N(/N=C/c2cccnc2)C1N(O)C(=O)Nc1ccccc1 (configuration not stated),23
CC1(C)C(=O)C2(CCCCC2)C(=O)OC1C(=O)c1ccccc1 (configuration not stated),9
Cc1ccc(NC(=O)c2ccccc2-c2ccccc2C(=O)O)cc1,10
O=C(CCCc1ccccc1)Nc1ccc2c(c1)OCCO2,19
Cc1cc(C)c(C(=O)/C=C/c2ccc3c(c2)OCO3)c(=O)[nH]1,23
COc1ccc(N(C(=O)CNC(=O)c2cccs2)C(C(=O)NCC2CCCO2)c2ccccc2)cc1 (configuration not stated),14
COC(=O)CCC(=O)N1CN2CN(C(=O)CCC(=O)OC)CC([N+](=O)[O-])(C2)C1,20
CCCS(=O)(=O)c1cscc1NC(=O)c1c(-c2c(F)cccc2Cl)noc1C,15
Cc1n(N)c2ccccc2[n+]1CC(=O)c1ccccc1,7
COc1ccc(Br)cc1CN(C)CC(=O)Nc1cc([N+](=O)[O-])ccc1OC,8
CC(=O)NC(c1ccc(F)cc1)c1cccnc1 (configuration not stated),9
CC1=NN(c2ccccc2)C(=O)/C1=C/C=C/C=C/N(C)C,18
O=c1cc(-c2ccc(C3CCCCC3)cc2)[nH][nH]1,19
CN(C)c1ccc(N=Nc2ccccc2C(=O)OCC(=O)N2CCCC2)cc1,17
COc1c(C)cc(C(=O)C2CCCN(C(=O)c3cc4nc(C)cc(C)n4n3)C2)cc1C (configuration not stated),10
Cc1ccc([N+](=O)[O-])cc1NC(=O)CN(C(=O)c1ccccc1Cl)C1CCCCC1,2
Cc1ccc(S(=O)(=O)/N=C(\c2ccccc2)N(C)S(=O)(=O)c2ccccc2)cc1,14
O=C(CCC(=O)c1ccc(Br)cc1)Nc1cccnc1,12
CCCN(CCC)CCNC(=S)Nc1ccc2nc3n(c(=O)c2c1)CCCCC3,21
O=C(O)c1ccc(/C=N/NC(=O)c2ccc(NS(=O)(=O)c3cccs3)cc2)cc1,18
COc1ccc(NC(=O)C2CCCN(S(=O)(=O)c3ccc(C)cc3)C2)cc1OC (configuration not stated),15
O=c1c2cc(-c3ccccc3)sc2nc2n1N=C(c1cccs1)CS2,8
CC(C)C(=O)NCCc1nc2ccccc2n1CCOc1ccccc1,-4
N#Cc1ccccc1CSc1nc2ccsc2c(=O)n1Cc1ccccn1,10
O=c1cc(COc2ccc(Cl)c(Cl)c2)nc2sccn12,29
Oc1c(Br)cc(Cl)cc1C=Nc1ccc(N2CCOCC2)cc1,23
CC1CCN(S(=O)(=O)c2ccc(C(=O)N3CCN(c4ccccc4F)CC3)cc2)CC1,14
Cc1cc(Cl)ccc1OCCCC(=O)NCCCn1ccnc1,9
Cc1ccc(C)c(OCc2nnc(SCC(=O)NC(=O)NCc3ccco3)o2)c1,9
CCOC(=O)c1c(C)[nH]c(C)c1C(=O)COC(=O)c1c(OC)cccc1OC,13
CCN(CC)S(=O)(=O)c1ccc(C)c(NC(=O)c2cc(C)oc2C)c1,9
CCc1ccc(NC(=O)C(=O)N/N=C(\C)CC(=O)NCc2ccc(Cl)cc2)cc1,21
CC(C)(C)NC(=O)COC(=O)CNC(=O)c1cc(Cl)cc([N+](=O)[O-])c1,5
O=C(NC(=S)N1CCN(c2ccc([N+](=O)[O-])cc2)CC1)c1ccccc1,9
Cc1cc(C(=O)N/N=C/C=C/c2ccccc2)c(C)o1,17
CCn1cc(CCC(=O)O)c(C)n1,6
Cc1cc(N2CCN(C)CC2)nc2ccc(NC(=S)N3CCCCC3)cc12,4
O=C(CN1CCCCCC1)Nc1ccccc1,20
CCN(c1ccccc1)S(=O)(=O)c1cc(C(=O)Nc2ccccc2Cl)ccc1F,4
NNC1=N[C@H]2CS(=O)(=O)C[C@H]2S1,15
CCCCc1cc(=O)oc2cc(OCc3nn[nH]n3)ccc12,18
O=C(CSc1ccc(-c2ccc3c(c2)OCO3)nn1)Nc1nccs1,4
CCN(CC)C(=O)COc1ccc(N(C)S(=O)(=O)c2ccc(NC(C)=O)cc2)cc1,21
COc1ccccc1OCC(=O)N/N=C1/C=C(C)CC1,0
Cc1ccc[n+](-c2[nH]c(=O)sc2/C=N/N=C(\[O-])CCn2c3ccccc3c3ccccc32)c1,4
N/C(=N\N=C\c1ccc2c(c1)OCO2)SC1CC(=O)N(c2ccc(C(=O)O)cc2)C1=O (configuration not stated),2
Cc1oc(-c2cc(F)ccc2F)nc1CN1CCN(c2ncnc3ccccc23)CC1,21
Cc1ccc(-c2nc3ccccc3nc2Cl)cc1,6
Cc1cc(=O)oc2c3c(ccc12)OC/C3=N/N,12
# (further entries)
SMILES,Biofilm kill mix
CCn1c(SCC(=O)Nc2ccc(C)cc2)nnc1-c1ccccn1,17
CC(C)(C)c1ccc(CNC(=O)c2ccc3c(c2)NC(=O)CO3)cc1,2
O=C(N/N=C/c1ccc(O)cc1)c1cccc(N/N=C/c2ccc(O)cc2)c1,18
CC(C)OC(=O)CN1C(=O)C(=O)c2ccccc21,5
COc1ccc(NC(=S)N(C)CC2COc3ccccc3O2)cc1 (configuration not stated),19
C=CCn1c(SCc2csc(C)n2)nc2sc3c(c2c1=O)CCC(C)C3 (configuration not stated),14
N#Cc1cc2[nH]c3ccccc3c2[n+](-c2ccc([N+](=O)[O-])cc2)c1N,1
Cc1cccc(C(C(N)=O)c2ncc(C(F)(F)F)cc2Cl)c1 (configuration not stated),5
COc1ccccc1-c1c(C(F)(F)F)oc2cc(OS(C)(=O)=O)ccc2c1=O,20
O=C(CSc1nnc(-c2ccccc2)o1)NC1CCS(=O)(=O)C1 (configuration not stated),16
COc1ccc(-n2cc(CNCC3CC(=O)N(C4CC4)C3)c(-c3ccccc3Cl)n2)cc1 (configuration not stated),21
CN(C)C(CNC(=O)C1CCN(S(=O)(=O)c2ccccc2)CC1)c1ccccc1 (configuration not stated),9
COc1ccc(CNCc2cccc(OC)c2OC)cc1Br,20
CCOc1ccc(Br)cc1S(=O)(=O)Nc1cccc(S(=O)(=O)N(C)C)c1,6
COc1ccc(CCNC(=O)CCc2nc3ccccc3[nH]2)cc1OC,2
Cc1ccc(C(=O)OCC(=O)NCC2CCCO2)c(C)c1 (configuration not stated),10
COc1ccccc1NC(=O)CCCc1c[nH]c2ccccc12,13
C[n+]1nc(Nc2cccc(F)c2)sc1-c1ccc(C(=O)O)cc1,15
CCCOc1ccc(C(=O)NCC(c2cccs2)N(C)C)cc1 (configuration not stated),13
Cc1nn(Cc2cccc3ccccc23)c(C)c1NC(=O)c1cccnc1,16
O=C(C[n+]1ccsc1)c1ccccc1,11
CC(C(=O)NCCS(=O)(=O)c1ccc(Cl)cc1)S(=O)(=O)c1ccc(Cl)cc1 (configuration not stated),9
C#CCN1C(=O)S/C(=C/C=C/c2ccc(N(C)C)cc2)C1=O,8
COc1ccccc1NC(=O)Cn1nnc(-c2ccccc2NC(=O)c2cnccn2)n1,18
O=C(O)c1nccnc1C(=O)Nc1ccc(Oc2c(Cl)cccc2Cl)nc1,17
O=c1c2ccccc2nc(COc2ccccc2)n1/N=C/c1ccc(O)cc1O,27
COc1ccc(/C=N/NC(=S)Nc2cc(C(F)(F)F)ccc2Cl)cc1,17
Cc1cc(C)n(CCN(C)c2nc3nonc3nc2N2CCCCC2)n1,10
CC(C)(C)NCc1ccc(OCc2cccs2)cc1,18
COc1cccc(C(=O)NCCSc2ccc(C)cc2)c1,12
COc1cccc(/C(O)=C/c2nc3ccc(C(=O)NCCc4cccc(C)c4)cc3[nH]c2=O)c1,6
CSC1=C(C#N)C(c2ccc3c(c2)OCO3)C2=C(CCCC2=O)N1 (configuration not stated),16
Cc1cccc(OCCn2c(=O)oc3ccc(C)cc32)c1,23
COC(=O)c1ccccc1-c1ccc(/C=N/Nc2nc(N3CCCC3)nc(N3CCCC3)n2)o1,15
Cc1sc(NC(=O)CSc2nc(N)cc(N)n2)c(C#N)c1C,11
O=C1NC(c2cccc(Cl)c2)Nc2ccccc21 (configuration not stated),11

# A run of entries of the results above:
SMILES,Biofilm kill mix
O=C(C[n+]1ccsc1)c1ccccc1,11
CC(C(=O)NCCS(=O)(=O)c1ccc(Cl)cc1)S(=O)(=O)c1ccc(Cl)cc1 (configuration not stated),9
C#CCN1C(=O)S/C(=C/C=C/c2ccc(N(C)C)cc2)C1=O,8
COc1ccccc1NC(=O)Cn1nnc(-c2ccccc2NC(=O)c2cnccn2)n1,18
O=C(O)c1nccnc1C(=O)Nc1ccc(Oc2c(Cl)cccc2Cl)nc1,17
O=c1c2ccccc2nc(COc2ccccc2)n1/N=C/c1ccc(O)cc1O,27
COc1ccc(/C=N/NC(=S)Nc2cc(C(F)(F)F)ccc2Cl)cc1,17
Cc1cc(C)n(CCN(C)c2nc3nonc3nc2N2CCCCC2)n1,10
CC(C)(C)NCc1ccc(OCc2cccs2)cc1,18
COc1cccc(C(=O)NCCSc2ccc(C)cc2)c1,12
COc1cccc(/C(O)=C/c2nc3ccc(C(=O)NCCc4cccc(C)c4)cc3[nH]c2=O)c1,6
CSC1=C(C#N)C(c2ccc3c(c2)OCO3)C2=C(CCCC2=O)N1 (configuration not stated),16
Cc1cccc(OCCn2c(=O)oc3ccc(C)cc32)c1,23
COC(=O)c1ccccc1-c1ccc(/C=N/Nc2nc(N3CCCC3)nc(N3CCCC3)n2)o1,15
Cc1sc(NC(=O)CSc2nc(N)cc(N)n2)c(C#N)c1C,11
O=C1NC(c2cccc(Cl)c2)Nc2ccccc21 (configuration not stated),11

# More structures
SMILES,Biofilm kill mix
O=C(N=Nc1c(O)[nH]c2ccccc12)c1cc(-c2ccc(F)cc2)n[nH]1,25
O=C(CN1CC[n+]2c(-c3cccs3)csc21)c1ccc(-c2ccccc2)cc1,6
CC(C)c1csc(CN2CCC(N3CCC(C(=O)N4CCOCC4)CC3)CC2)n1,-2
O=S(=O)(c1cccs1)N1CN(C2CCCCC2)c2nc3ccccc3nc21,9
CCn1c(CNC(=O)c2ccco2)nnc1SCC(=O)c1ccc(OC)cc1,22
CCC(C)(NC=O)C(=O)Nc1c(C)cccc1C (configuration not stated),12
O=C1N/C(=N\N=C\c2ccco2)SC1Cc1ccccc1[N+](=O)[O-] (configuration not stated),16
O=C(CCN1C(=O)C2CCCCC2C1=O)Nc1ccc(F)c(F)c1F (configuration not stated),9
CCCCNC(=O)c1cccnc1SCC(=O)Nc1ccccc1OC,9
N#C/C(=C\c1cccc(OC(=O)c2cccs2)c1)C(N)=O,4
COc1cccc(NC(=O)CCN2C(=O)c3ccc([N+](=O)[O-])cc3C2=O)c1,7
CCOc1ccc(Oc2ccc(NC(=O)[C@@H](NC(N)=O)[C@@H](C)CC)cc2)cc1,21
COCCSc1ccccc1C(=O)Nc1cc([N+](=O)[O-])ccc1OC,15
O=C(COC(=O)c1cccc([N+](=O)[O-])c1)c1ccc(OCc2ccccc2)cc1,-1
O=C(Nc1ccc(S(=O)(=O)NCC2CCCO2)cc1)c1cnccn1 (configuration not stated),2
O=[N+]([O-])c1cc(S(=O)(=O)Nc2ccccc2)ccc1N1CCN(c2ccccc2)CC1,7
O=C(CN1C(=O)CC(c2ccccc2)S(=O)(=O)c2ccccc21)N1CCCCC1 (configuration not stated),-2
COc1cccc(CNC(=O)c2cccc(Br)c2)c1,12
O=C(Nc1nccs1)c1ccc(S(=O)(=O)N2CCOCC2)cc1,2
CC(NC(=O)C(NC(=O)C(Cc1c[nH]c2ccccc12)NC(=O)OC(C)(C)C)C(C)C)C(N)=O (configuration not stated),-10
COc1cccc(/C(O)=C/c2nc3ccc(C(=O)NCCc4ccc(Cl)cc4)cc3[nH]c2=O)c1,4
Cn1c(=O)n(C)c2cc(/C=N/NC(=S)NCc3ccccc3)ccc21,16
COc1ccc(/C=N/NC(=O)c2cc(C)oc2C)cc1OC,12
CC(C)(C)n1nnnc1C(c1ccccn1)N1CCN(C(c2ccccc2)c2ccccc2)CC1 (configuration not stated),18
O=C(NC1c2ccccc2-c2ccccc21)c1ccccc1,6
CCOC(=O)c1noc(C)c1C(=O)Nc1nccs1,28
Cc1ccc(-n2c(=O)c3ccccc3n(CC(=O)NCc3ccco3)c2=O)cc1,21
Cc1ccc(C(c2nnnn2CS(=O)(=O)c2ccc(C)cc2)N2CCCC2)cc1 (configuration not stated),12
C[C@H]1C(=O)N(C)CCN1Cc1cn(C)nc1-c1ccc(Oc2ccccc2)cc1,27
C/C(=N\NC(=O)c1cc(-c2ccncc2)nc2ccccc12)c1ccc(OC(F)F)cc1,18
O=C(COC(=O)CNS(=O)(=O)c1cccc(Br)c1)Nc1ccccc1Sc1ccccc1,17
COc1cccc(-n2cnc3c(sc4nc(N5CCOCC5)c5c(c43)CCCC5)c2=O)c1,5

# These rows are one share of the data; rates above refer to the full screens.
